T. gondii HeLa = Toxoplasma gondii ME49Luc growth in HeLa cells, luciferase, no IFN-y, primary screen (AID 1259421); T. gondii ME49Luc in HeLa, luciferase, 72 h, no IFN-y; active compounds read low; reference of the scale and settings of repeat entries not given here; many of its hits are not listed in these tables; activity change, negative = inhibition, %; 6,400 compounds, 9.6% hits;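 active means activity change below -70%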;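 further: about 20 µM from a 10 mM stock diluted 500-fold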
Numbers without * were called inactive; & = joins results of further samples; ! = not confirmed by another sample. A portion of the library; rates above refer to the full screens.

SMILES	T. gondii HeLa
Clc1ccccc1CNCC1CCC(CNCc2ccccc2Cl)CC1 (stereo not given)	9.3&-5.5
CN1C2CCC1CC(OC(=O)c1c[nH]c3ccccc13)C2 (stereo not given)	2.2
O=C(Nc1cc(Cl)cc(Cl)c1O)c1c(O)c(Cl)cc(Cl)c1Cl	1.7
O=C(Nc1c(Cl)cncc1Cl)c1ccc(OC(F)F)c(OCC2CC2)c1	19.4
CCCCN(Cc1ccc(C(=O)NO)cc1)C(=O)Nc1ccccc1	-84.4*
CC(C)OC(=O)[C@H](C)N[P@@](=O)(OC[C@H]1O[C@@H](n2ccc(=O)[nH]c2=O)[C@](C)(F)[C@@H]1O)Oc1ccccc1	18.5&5.0
CCCCC#Cc1nc(NC)c2ncn([C@@H]3O[C@H](CO)[C@@H](O)[C@H]3O)c2n1	17.6
Clc1ccc(-c2nc3sccn3c2/C=N/OCc2ccc(Cl)c(Cl)c2)cc1	3.2&27.7
COc1ccc(-c2cc(=O)c3c(OC)c(OC)c(OC)c(OC)c3o2)cc1OC	14.2
COC(F)(F)C(Cl)Cl	19.6
COc1ccc(CCN(C)CCc2ccc(OC)c(OC)c2)cc1OC	-3.3&7.3
CO[C@@H]1[C@H](O)[C@@H](CO)O[C@H]1n1cnc2c(NC3CCCCC3)ncnc21	2.3
NC(COCc1ccccc1)C(=O)O (stereo not given)	2.6
C[C@@H]1NC(=O)NC1=O	9.7
CCC[N+]12C3C[C@H](C4C(O)[C@]5(C[C@@H]41)c1ccccc1N(C)[C@@H]35)[C@H](CC)[C@H]2O (stereo not given in full)	10.9
Nc1nc(F)nc2c1ncn2[C@@H]1O[C@H](COP(=O)(O)O)[C@@H](O)[C@@H]1O	-29.1
COc1cc2c(cc1OC)Cc1cc(OC)c(OC)cc1Cc1cc(OC)c(OC)cc1C2	6.3
COc1ccc(-c2coc3c(O)c(O)c(OC)cc3c2=O)cc1	77.9
O=C(O)c1ccccc1Nc1cc(Cl)ccc1C(=O)O	6.9
Cc1cc(=O)oc2cc(O)cc(O)c12	9.4
COc1cc(N)c(Cl)cc1C(=O)N[C@@H]1CCNCC1OC (stereo not given in full)	8.0
Cc1occc(=O)c1O	-2.7
Clc1ccc2c(c1)CCc1cccnc1C2=C1CCNCC1	13.1&7.1
Cc1nc(-c2ccc(OCC(C)C)c(C#N)c2)sc1C(=O)O	413.1
COc1cc(OC)c2c(=O)c(OC)c(-c3ccccc3)oc2c1	43.5
O=S(=O)(c1cccc2c(Cl)cccc12)N1CCCNCC1	-5.4&9.1
NS(=O)(=O)c1ccc(NC(=O)Nc2ccc(F)cc2)cc1	184.5
CCOC(=O)C1=CC2(CC)CCCN3CCc4c(n1c1ccccc41)C32 (stereo not given)	23.3
CON=C1C[C@]2(C[C@@H]3C[C@@H](C/C=C(\C)C[C@@H](C)/C=C/C=C4\CO[C@@H]5[C@H](O)C(C)=C[C@@H](C(=O)O3)[C@]45O)O2)O[C@H](/C(C)=C/C(C)C)[C@H]1C	-67.7
CC(=O)OCC(=O)[C@@]1(O)CCC2C3CCC4=CC(=O)C=C[C@]4(C)[C@@]3(Cl)[C@@H](Cl)C[C@@]21C (stereo not given in full)	-0.2
O=C(NC1CCN(CCCCC2(C(=O)NCC(F)(F)F)c3ccccc3-c3ccccc32)CC1)c1ccccc1-c1ccc(C(F)(F)F)cc1	-89.0*
Oc1ccc(Cl)c2cccnc12	6.8&17.5
Nc1ncnc(Nc2ccc(Cl)cc2)n1	29.4&58.1
O=C1CCCC(=O)C1C(=O)c1ccc(C(F)(F)F)cc1[N+](=O)[O-]	3.5
Cc1ccn(-c2cc(Cl)ccc2[C@@H](Oc2cc(-c3ccc(C[C@H](N)C(=O)O)cc3)nc(N)n2)C(F)(F)F)n1	16.1
COc1c2ccoc2nc2c(OC)c(OCC(O)C(C)(C)O)ccc12 (stereo not given)	7.3
Cc1ccccc1-c1cc(N2CCN(C)CC2)ncc1N(C)C(=O)C(C)(C)c1cc(C(F)(F)F)cc(C(F)(F)F)c1	-80.1*
CC(=O)OCC(=O)[C@@]1(O)CCC2C3CCC4=CC(=O)CC[C@]4(C)[C@@]3(F)[C@@H](O)C[C@@]21C (stereo not given in full)	-4.8
NC(=O)N/N=C/c1ccc(Oc2ccc(F)cc2)cc1	-26.2&13.8
Cc1cc(I)ccc1Nc1c(C(=O)NOCC2CC2)cc(F)c(F)c1F	-87.6*!
N[C@H](C(=O)O)[C@H](O)c1ccc(O)c(O)c1	-6.5
COC(=O)C1=C(C)NC(C)=C(C(=O)O[C@H]2CCN(Cc3ccccc3)C2)[C@H]1c1cccc([N+](=O)[O-])c1	0.5
C[N+](C)(C)CCCCCNCC12CC3CC(CC(C3)C1)C2	13.3
O=C1CN2Cc3c(ccc(Cl)c3Cl)N=C2N1	-78.8*!
CC(C)C[C@@H](C=O)NC(=O)[C@H](CC(C)C)NC(=O)[C@H](CC(C)C)NC(=O)OCc1ccccc1	-91.5*!
Cn1cc(C(F)(F)F)nc1-c1ccc(OCC(O)CNCCOc2ccc(O)c(C(N)=O)c2)cc1 (stereo not given)	1.0
CCOc1nc2cccc(C(=O)OCc3oc(=O)oc3C)c2n1Cc1ccc(-c2ccccc2-c2noc(=O)[nH]2)cc1	-57.4
C[C@H]1CN(C[C@H](Cc2ccccc2)C(=O)NCC(=O)O)CC[C@@]1(C)c1cccc(O)c1	5.0
COc1ccc(-c2cc(=O)c3c(O)cc(O)cc3o2)cc1	127.1
NC(=O)N1c2ccccc2CC(O)c2ccccc21 (stereo not given)	21.2
COC(=O)N[C@H](C(=O)N1CCC[C@H]1c1ncc(-c2ccc(-c3ccc(-c4cnc([C@@H]5CCCN5C(=O)[C@@H](NC(=O)OC)C(C)C)[nH]4)cc3)cc2)[nH]1)C(C)C	2.6
CC(=O)c1c(O)c(C)c(O)c2c1OC1=CC(=O)C(C(C)=O)C(=O)C12C (stereo not given)	-3.9
CC(C)=CCc1c2c(c3occ(-c4ccc(O)c(O)c4)c(=O)c3c1O)C=CC(C)(C)O2	-60.3
O=C(NCCCCCCNC(=O)ON=C1CCCCC1)ON=C1CCCCC1	10.4&-64.5
NC(N)=NCC1COC2(CCCCC2)O1 (stereo not given)	-1.5
Cc1c(-c2ccccc2)oc2c(C(=O)OCCN3CCCCC3)cccc2c1=O	7.5
CC1CCC(C(=O)N(c2cc(C#CC(C)(C)C)sc2C(=O)O)C2CCC(O)CC2)CC1 (stereo not given)	16.2
Clc1ccc(N/N=C(\c2ccccc2)c2ccccn2)nc1	31.4
CCC(=O)OCC(=O)C1(OC(=O)CC)[C@H](C)C[C@H]2C3[C@H](Cl)CC4=CC(=O)C=C[C@]4(C)[C@H]3[C@@H](O)C[C@@]21C (stereo not given in full)	11.6
CC(C)Nc1nc2cc(Cl)c(Cl)cc2n1[C@H]1O[C@@H](CO)[C@H](O)[C@@H]1O	-13.6

Already shown: seven of the compounds above.
SMILES	T. gondii HeLa
O=C(NCCCCCCNC(=O)ON=C1CCCCC1)ON=C1CCCCC1	10.4&-64.5
NC(N)=NCC1COC2(CCCCC2)O1 (stereo not given)	-1.5
Cc1c(-c2ccccc2)oc2c(C(=O)OCCN3CCCCC3)cccc2c1=O	7.5
CC1CCC(C(=O)N(c2cc(C#CC(C)(C)C)sc2C(=O)O)C2CCC(O)CC2)CC1 (stereo not given)	16.2
Clc1ccc(N/N=C(\c2ccccc2)c2ccccn2)nc1	31.4
CCC(=O)OCC(=O)C1(OC(=O)CC)[C@H](C)C[C@H]2C3[C@H](Cl)CC4=CC(=O)C=C[C@]4(C)[C@H]3[C@@H](O)C[C@@]21C (stereo not given in full)	11.6
CC(C)Nc1nc2cc(Cl)c(Cl)cc2n1[C@H]1O[C@@H](CO)[C@H](O)[C@@H]1O	-13.6

Continued:
SMILES	T. gondii HeLa
COc1cc2c(c(OC)c1OC)-c1c(cc3c(c1OC)OCO3)C[C@H](C)[C@@H](C)C2	13.7
COc1cccc(C=NC=Nc2cccc(OC)c2)c1	10.3
CCOC(=O)C1=CCCC[C@H]1S(=O)(=O)Nc1ccc(F)cc1Cl	18.7
CC(C)C[C@H](NC(=O)N1CCCCCC1)C(=O)N[C@H](Cc1cn(C)c2ccccc12)C(=O)N[C@H](Cc1ccccn1)C(=O)O	13.4
CN1N=C(C(N)=O)CCC1=O	5.4
COc1cc2oc3cc(OC)c(OC)c(CC=C(C)C)c3c(=O)c2c(O)c1CC=C(C)C	7.8
CN1CC[C@@H](NC(=O)Nc2ccc(C#N)cc2)C[C@@H]1c1nc2ccccc2[nH]1	7.9
NCC[C@@H](O)C(=O)N[C@@H]1C[C@H](N)[C@@H](O[C@H]2O[C@H](CN)[C@@H](O)[C@H](O)[C@H]2O)[C@H](O)[C@H]1O[C@H]1O[C@H](CO)[C@@H](O)[C@H](N)C1O (stereo not given in full)	22.8
CS(=O)(=O)c1ccc(C2=C(c3ccccc3)C(=O)OC2)cc1	10.5&-1.5
CN(C)CCC1(c2ccc(Cl)cc2)Cc2ccccc2C(=O)O1 (stereo not given)	4.8&24.4
CN1CCCC(CN2c3ccccc3Sc3ccccc32)C1 (stereo not given)	21.2&11.8
COC(=O)[C@@H]1[C@H]2C[C@H]3c4[nH]c5ccccc5c4CCN3C[C@@H]2CC[C@@H]1O	7.8&8.6
OCCN1CCN(CC/C=C2/c3ccccc3Sc3ccc(C(F)(F)F)cc32)CC1	-74.2*
Cc1cc(O)cc(=O)o1	2.6
O=C(O[C@H]1C[N+]2(CCCOc3ccccc3)CCC1CC2)C(O)(c1cccs1)c1cccs1	70.9
CC(C)=CCC/C(C)=C/COc1ccc2ccc(=O)oc2c1	17.8
CN(CCCCCCCCCCN(C)C(=O)Oc1cccc([N+](C)(C)C)c1)C(=O)Oc1cccc([N+](C)(C)C)c1	9.9
Cc1[nH]c(=O)c(C#N)cc1-c1ccncc1	9.0&46.4
CCc1nc(C)ccc1O	-11.9
CCOc1cc(CC(=O)N[C@@H](CC(C)C)c2ccccc2N2CCCCC2)ccc1C(=O)O	0.6
O=c1cc(N2CCOCC2)oc2c(-c3cccc4c3sc3ccccc34)cccc12	7.5
O=[N+]([O-])c1ccc2c(c1)S(=O)(=O)C=C2	11.3
C=CC(=O)Nc1ccc(OC)cc1	7.7
CCc1ccc(OCc2ccccc2C(=O)Nc2ccc3nc(C)cc(N)c3c2)cc1	-82.4*
Cc1coc2c1C(=O)C(=O)c1c-2ccc2c(C)cccc12	-23.1
CCCN[C@H]1CCc2nc(N)sc2C1	4.6
O=C(Cn1ccnc1[N+](=O)[O-])NCc1ccccc1	3.1&0.3
N#C[C@@H]1C[C@@H]2C[C@@H]2N1C(=O)[C@@H](N)C12CC3CC(CC(O)(C3)C1)C2	12.4
NC(=O)c1ccc(N(C(N)=O)c2c(F)cccc2F)nc1-c1ccc(F)cc1F	25.7
CN(CCc1ccc(Cl)c(Cl)c1)CCN1CCCC1	14.6
Nc1ncnc2c1ncn2[C@@H]1O[C@H](C[C@@H](N)CC[C@H](N)C(=O)O)[C@@H](O)[C@H]1O	-5.3
CCCNC(=O)N1N=C(c2ccc(N)cc2)c2cc3c(cc2C1C)OCO3 (stereo not given)	-5.1&5.7
Cn1[nH]c(=O)c(=O)[nH]c1=S	14.6
CNC(=O)C1OC(n2cnc3c(NCc4cccc(I)c4)nc(Cl)nc32)C(O)C1O (stereo not given)	-2.1
CNC(=O)[C@H](Cc1c[nH]c2ccccc12)NC(=O)[C@@H](CC(=O)NO)CC(C)C	-5.3&4.4
O=[N+]([O-])O[C@@H]1CO[C@H]2[C@@H]1OC[C@@H]2O	-3.2&8.7
O=C(Nc1ccc(O)cc1)c1ccccc1O	30.3
CCN(CC)C(=O)/C(C#N)=C/c1cc(O)c(O)c([N+](=O)[O-])c1	11.7
Clc1cnccn1	9.0
CCN(CC)CCNC(=O)c1cc(S(C)(=O)=O)ccc1OC	6.1&6.2
COc1ccc(COc2cc3oc(=O)c4cc(C(C)O)ccc4c3cc2OC)cc1 (stereo not given)	4.5
CC(C)(C)NS(=O)(=O)c1cncc(-c2cc(F)c3nc(N)nn3c2)c1	-13.0
O=C(NCC(O)CO)c1c(I)c(C(=O)NCC(O)CO)c(I)c(N(CCO)C(=O)CO)c1I (stereo not given)	7.1
Cc1ccc(O)c(N=Nc2ccccc2)n1	3.8&8.2
CC(=C(CCOP(=O)(O)O)SC(=O)c1ccccc1)N(C=O)Cc1cnc(C)nc1N	-0.1
c1ccc2c(c1)CN1CCCC1=N2	-10.7&-1.9
CN/C(=C\[N+](=O)[O-])NCCSCc1csc(CN(C)C)n1	2.1&16.6
COc1ccc2c(c1)c(CC(=O)OCC(=O)O)c(C)n2C(=O)c1ccc(Cl)cc1	7.3&6.9
CC(=O)Nc1ccc(OC(C)=O)cc1	4.0&9.8
C[C@]12CCC3c4ccc(OC(=O)c5ccccc5)cc4CCC3C1CCC2=O (stereo not given in full)	-55.9
CC(C)c1cc(C(C)C)c(CC(=O)NS(=O)(=O)Oc2c(C(C)C)cccc2C(C)C)c(C(C)C)c1	9.6
S=C1SCN(Cc2ccccc2)CN1Cc1ccccc1	40.2
OCc1cc2ncnc(Nc3ccc(O)c(Br)c3)c2cc1CO	-79.3*
COc1ccc(-c2oc3cc(OC)ccc3c2C(=O)c2ccc(C#N)cc2)cc1	13.8&-4.4
COc1ccccc1OCC(O)CN1CCN(CC(=O)Nc2c(C)cccc2C)CC1 (stereo not given)	0.5&2.5
O=c1nc2ccccc2c2n1CC(CN1CCN(c3ccccc3)CC1)N2 (stereo not given)	-1.3&-7.8
CCCn1c(=O)[nH]c2nc(-c3ccc(S(=O)(=O)O)cc3)[nH]c2c1=O	1.8&1.0
CC(C)N1CCN(c2ccc(OC[C@H]3CO[C@](Cn4cncn4)(c4ccc(Cl)cc4Cl)O3)cc2)CC1	-0.9&-4.5
NC(=O)NCCCC(N)C(=O)O (stereo not given)	15.0
O=C1NC(=O)C(c2ccccc2[N+](=O)[O-])=C1Nc1ccc(O)c(Cl)c1	-9.1&-7.9
C=C(C)[C@H]1COc2cc3oc(=O)ccc3cc2O1	-3.9

2 entries from above, as comma-separated lines:
structure,T. gondii HeLa
CN/C(=C\[N+](=O)[O-])NCCSCc1csc(CN(C)C)n1,2.1&16.6
COc1ccc2c(c1)c(CC(=O)OCC(=O)O)c(C)n2C(=O)c1ccc(Cl)cc1,7.3&6.9
